CtBP-E1A inh – CtBP/E1A binding inhibition | AlphaScreen GST-E1A/His-CtBP binding, 1536-well; active compounds read low; control for the full effect not named in the record | activity change, % (test concentration not listed) | hit rate 0.49% among 340,000; in the data active means activity change below about -65%; inconclusive means about -30% to -65%; inactive means above about -30%; note: % is set by controls: 0 for no effect and ±100 for the full control effect
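GST-E1A and His-tagged CtBP (125 nM each as 5X stock) were preincubated with pin-transferred compound for 2 h at 37 °C in the dark, then glutathione donor and nickel acceptor beads were added for 1 h before AlphaScreen reading.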
TRPV1 PAM – human TRPV1 potentiation; Q8NER1; AID 540277; potentiation, % at 8.33 µM; hit rate 0.02% among 320,000; TRPV1-expressing cells, Fluo-8 calcium influx, capsaicin EC20 potentiation; host cell line not named in the record; control for the full effect not named in the record; active means potentiation above 80%; inconclusive means 30% to 80%; inactive means below 30%; note: 0% is about no effect
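Fluo-8 calcium influx in TRPV1-expressing cells, kinetic read (ex 480/em 520 nm). Compound added and read 3 min for agonist activity, followed by capsaicin at EC20 final and 2 min further read for enhancement.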
TRPML1 inh – human mucolipin-1 channel inhibition; Q9GZU1; TRPML1-inducible cells, Ca2+ dye fluorescence, FDSS; active compounds read low; inhibition of EC80 agonist-evoked calcium signal; activity change, negative = inhibition, % (test concentration not listed); hit rate 0.02% among 390,000; AID 624415; in the data active means activity change below about -50%; inconclusive means about -30% to -50%; inactive means above about -30%;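 note: stimulus is agonist 54-4 at its EC80 concentration; % is set by controls: 0 for no effect and ±100 for the full control effect; compound concentration not given in the record; the text of the record puts the active cut at -80%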
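TRPML1-DL cells, Tet-induced overnight (~16 h, 37 °C) at 1,500 cells/well, were loaded with Ca8 no-wash dye plus quencher for 45-90 min at room temperature. Compounds were pinned during FDSS kinetic reading; agonist 54-4 at EC80 (4 uM final) then added.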
Six1-Eya2 blk – inhibitors of human Six1/Eya2 interaction. Q15475+O00167. AlphaScreen GST-Six1/His-Eya2 binding, biochemical; active compounds read low; control for the full effect not named in the record. hit rate 0.56% among 360,000. activity change, % (concentration not given with the values); in the data active = activity change below about -65%; inconclusive = about -30% to -65%; inactive = above about -30%; note: % is set by controls: 0 for no effect and ±100 for the full control effect
Target sequence (O00167 whole entry, looked up): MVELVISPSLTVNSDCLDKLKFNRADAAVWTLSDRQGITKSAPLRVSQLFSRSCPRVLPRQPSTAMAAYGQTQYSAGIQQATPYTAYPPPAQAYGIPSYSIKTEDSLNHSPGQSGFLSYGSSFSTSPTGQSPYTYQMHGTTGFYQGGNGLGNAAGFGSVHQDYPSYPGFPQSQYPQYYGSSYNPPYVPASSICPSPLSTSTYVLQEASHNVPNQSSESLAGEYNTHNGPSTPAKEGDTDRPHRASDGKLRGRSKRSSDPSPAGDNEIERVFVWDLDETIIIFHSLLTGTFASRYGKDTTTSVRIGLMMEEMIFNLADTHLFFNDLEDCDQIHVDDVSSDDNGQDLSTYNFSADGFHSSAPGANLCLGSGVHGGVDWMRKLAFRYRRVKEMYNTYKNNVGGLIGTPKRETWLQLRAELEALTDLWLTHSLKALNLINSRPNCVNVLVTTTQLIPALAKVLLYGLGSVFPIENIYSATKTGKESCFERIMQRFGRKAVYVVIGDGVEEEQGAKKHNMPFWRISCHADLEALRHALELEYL
Target sequence (Q15475 whole entry, looked up): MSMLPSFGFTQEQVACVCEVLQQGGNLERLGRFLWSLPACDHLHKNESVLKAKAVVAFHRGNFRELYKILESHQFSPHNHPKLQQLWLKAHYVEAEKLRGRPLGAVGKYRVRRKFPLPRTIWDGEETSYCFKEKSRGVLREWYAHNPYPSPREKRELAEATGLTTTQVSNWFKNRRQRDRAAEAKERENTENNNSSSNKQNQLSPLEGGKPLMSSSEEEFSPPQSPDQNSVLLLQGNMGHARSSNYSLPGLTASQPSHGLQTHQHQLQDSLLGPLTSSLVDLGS
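AlphaScreen with GST-Six1 and His-Eya2 (5X mix: 250 nM and 500 nM), glutathione donor and nickel acceptor beads; buffer 50 mM Tris pH 8.0, 300 mM NaCl, 1 mM TCEP; 1 h at 37 C in the dark.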
D2 PAM – potentiates the human D2 dopamine receptor allosterically | AID 624464 | DiscoveRx D2 beta-arrestin cells, luminescence, 90 min; 100% = 57 uM dopamine signal | P14416 | hit rate 0.23% among 360,000 | potentiation, % (no concentration beside the values); active = potentiation of 50% or more; inconclusive = 30% to 50%; inactive = 30% or less;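 note: compound concentration not given in the record; tested on top of an EC20 dose of dopamine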
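D2 cells co-treated with compound plus 50 nM dopamine (EC20) for 90 min at 37 deg C to detect potentiation. Beta-arrestin recruitment was read as enzyme-fragment luminescence after 1 h at ambient temperature. Full response was set by 57 uM dopamine.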
TRPML1 agonist – activates the human TRPML1 channel; Q9GZU1; TRPML1-expressing cells, Ca2+ dye fluorescence, FDSS; host cell line not named in the record; reference of the full effect not given here; activation, % (test concentration not listed); hit rate 0.12% among 410,000; AID 624414; in the data active = activation above about 50%; inconclusive = about 30% to 50%; inactive = below about 30%; note: 0% is about no effect; the text of the record puts the active cut at 80%
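TRPML1-DL cells, Tet-induced overnight (~16 h, 37 degrees C), loaded 45-90 min at room temperature with Ca8 no-wash calcium dye plus quencher. FDSS fluorescence: 10 s baseline, compound pin-transfer, 110 s agonist read, then EC80 54-4 (4uM final) and 110 s antagonist read.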
An asterisk follows results filed as active; ? = inconclusive; . = no result given.

cpd | compound | CtBP-E1A inh | TRPV1 PAM | TRPML1 inh | Six1-Eya2 blk | D2 PAM | TRPML1 agonist
1 | CCCc1cc(=O)[nH]c(SCC(=O)N2CCCCCC2)n1 | 4 | . | -9 | -3 | -3 | -0.4
2 | O=c1ccn(Cc2ccccc2Cl)cc1 | 6 | 5 | 14 | 2 | -16 | 0.4
3 | CSc1ncccc1C(=O)N1CCN(S(=O)(=O)c2ccc3ccccc3c2)CC1 | -3 | 1 | 1 | 1 | 1 | 0.4
4 | C#CCN1Cc2ccccc2Oc2cc(Br)ccc2S1(=O)=O | -1 | . | -1 | 1 | -2 | -0.4
5 | O=C(Nc1cccc(C(=O)N2CCOCC2)c1)c1ccc([N+](=O)[O-])cc1 | 1 | -18 | 8 | 0 | 2 | -0.4
6 | COc1ccc(C2CC(c3ccccc3)=NN2C(=O)COC(=O)c2cccnc2)cc1 (stereo not drawn) | 4 | -30 | 5 | 4 | -2 | -1.3
7 | S=c1[nH]nc(-c2ccc(Cl)cc2)n1-c1cccnc1 | . | -7 | 2 | 8 | -19 | -0.3
8 | COc1cc(NC(=O)COC(=O)CNC(=O)C2CCCCC2)cc(OC)c1 | 2 | 11 | 5 | -5 | -21 | -0.2
9 | CCOc1ncccc1C(=O)OCC(=O)NCc1cccs1 | . | . | 3 | 5 | -2 | -1.5
10 | O=C(CN1CCC(n2nnc3cc(C(F)(F)F)ccc32)CC1)NCc1cccs1 | 2 | -56 | -1 | 5 | -2 | 0.3
11 | COc1ccc(-c2csc(N(CC3CCCO3)C(=O)c3cccs3)n2)cc1 (stereo not drawn) | 3 | . | 27 | -1 | 7 | 2.1
12 | COc1ccccc1-c1cc(-c2ccccc2)nc(=O)[nH]1 | -1 | 12 | 23 | -6 | -3 | -1.0
13 | O=C(Nc1ccccc1OC(F)(F)F)c1ccc([N+](=O)[O-])cc1 | -1 | 11 | 6 | 0 | 2 | 1.1
14 | Cc1ccc(NC(=O)c2ccc3nsnc3c2)c(C)c1 | . | -17 | 8 | -4 | -8 | 0.8
15 | C/C(=N\NS(=O)(=O)c1ccccc1)c1ccccc1 | 0 | 4 | 13 | 1 | -9 | -0.6
16 | Cn1c(SCC(=O)NCc2cccs2)nnc1-c1cccs1 | -2 | -4 | 2 | 2 | -13 | 0.7
17 | COc1ccc(NC(=O)c2cc(C)on2)cc1 | 10 | 1 | -2 | 10 | -6 | -0.2
18 | CCc1ccc(CNCc2ccc(OCC(O)CN(C)Cc3ccccc3)cc2)nc1 (stereo not drawn) | ? | 0 | . | ? | -36 | .
19 | COC(=O)[C@]12CCCCC=C1N(Cc1ccco1)C(=O)[C@H](CC(=O)NCCC(C)C)C2 | -17 | . | . | 10 | . | -0.8
20 | C/C=C/C=C/C(=O)N1CC2(CC(c3cccc(NC(=O)/C=C/C)c3)=NO2)C[C@@H]1C(N)=O (stereo partly drawn) | -11 | -40 | -5 | -11 | -2 | -0.3
21 | CNC(=S)NN(C)c1nc(C)cc(C)n1 | -12 | -23 | -14 | 10 | -8 | 0.6
22 | O=C(CNC(=O)c1ccccc1F)N/N=C/c1ccc2c(c1)OCO2 | -5 | 3 | 4 | 7 | -10 | -0.6
23 | COc1ccc(-c2cc(NC=O)c3ncc(-c4cc(OC)c(OC)c(OC)c4)n3c2)c(OC)c1 | ? | . | . | -23 | 1 | -0.6
24 | O=C1c2cccnc2Nc2ccccc2N1CCCF | -4 | -6 | 23 | -4 | -7 | 0.1
25 | O=C(/C=C/Nc1ccccc1Oc1ccccc1)c1ccco1 | -4 | -5 | -13 | 7 | -4 | -0.4
26 | Cc1cc(C)c(C)c(C(=O)COC(=O)CNC(=O)CNC(=O)c2ccco2)c1C | -1 | 3 | -3 | 8 | -5 | -1.4
27 | CN(C(=O)c1cccc(C#N)c1)c1nnc(-c2cnccn2)s1 | -6 | -2 | -18 | 9 | -4 | -0.6
28 | COc1cccc(OC)c1C1=CC(=O)C[C@H](c2ccc3c(c2)OCO3)C1 | -10 | -2 | -3 | -19 | -5 | 2.2
29 | Brc1ccc(CSc2ccc3nnc(-c4ccccn4)n3n2)cc1 | -12 | 8 | 1 | ? | -10 | 0.2
30 | CCN(CC)C(=O)CN1C(=O)C2(NC(=O)c3ccccc3N2)c2ccccc21 (stereo not drawn) | 4 | -1 | -9 | -3 | -2 | 3.1

Other compounds follow.
Every second line gives: CtBP-E1A inh | TRPV1 PAM | TRPML1 inh | Six1-Eya2 blk | D2 PAM | TRPML1 agonist
[31] COC(=O)[C@@]1(Cc2ccc(OC)cc2)[C@H]2c3cc(C(=O)N(C)C)n(CCSCCO)c3C[C@H]2CN1C(=O)c1ccccc1
    -18 | -15 | 34 | -4 | -5 | 0.2
[32] O=[N+]([O-])c1ccccc1N/N=C1\CCc2ccccc21
    -15 | -13 | 8 | -26 | -5 | -0.9
[33] O=C(NCC1CCCN1S(=O)(=O)c1cccs1)c1ccccc1F (stereo not drawn)
    5 | 15 | 33 | 6 | -1 | 0.2
[34] Cc1ccc(CN2C(=O)C(Cc3ccccc3)Nc3ncnc(N4CCOCC4)c32)cc1 (stereo not drawn)
    1 | . | -15 | -4 | -16 | -0.4
[35] Cc1ccc(C(=O)N/N=C\c2ccc([N+](=O)[O-])o2)cn1
    -17 | . | 12 | -17 | -2 | 0.0
[36] Cc1ccccc1-c1cnc(C(O)c2c(C)cccc2C)[nH]1 (stereo not drawn)
    -20 | . | . | ? | -20 | -1.3
[37] COc1ccc(NC(=O)c2ccc(OC)cc2)cc1
    -3 | -11 | -10 | -2 | -24 | 1.6
[38] O=C(COC(=O)c1ccc[nH]c1=O)NC1CCCc2ccccc21 (stereo not drawn)
    11 | -1 | -6 | 1 | 0 | 0.9
[39] CC1Cc2cc(/C(O)=C3/C(=O)C(=O)N(CCN4CCOCC4)C3c3ccc(C(C)C)cc3)ccc2O1 (stereo not drawn)
    14 | -5 | -5 | 10 | -4 | -0.3
[40] CC(C)CCNC(=O)c1cccc(C(=O)NCCC(C)C)c1
    3 | -6 | -20 | 1 | -3 | -1.4
[41] CCOc1ccccc1N1CCN(C(=O)c2csc(C)c2CC)CC1
    3 | -13 | -3 | 3 | -1 | -0.5
[42] CCOC(=O)c1cccc(NC(=O)c2ccc3c(c2)OCO3)c1
    -5 | 7 | 3 | 0 | -4 | -0.2
[43] CCOC1=C2CN(S(=O)(=O)c3ccc(C)cc3)[C@H](c3ccccc3)C[C@H]2n2c(=O)n(-c3ccccc3)c(=O)n2C1
    9 | . | -1 | -5 | 3 | 0.5
[44] CCC(C(=O)OCC(=O)c1c(N)n(CC(C)C)c(=O)n(C)c1=O)c1ccccc1 (stereo not drawn)
    -1 | 16 | 3 | -1 | 3 | 0.1
[45] COc1cccc(NS(=O)(=O)c2ccc3[nH]cc(C(=O)NC(C)c4ccccc4)c(=O)c3c2)c1 (stereo not drawn)
    . | -8 | -20 | . | . | 0.5

An excerpt from above in order of their number in CtBP-E1A inh, falling:
nr	compound	CtBP-E1A inh	TRPML1 inh	Six1-Eya2 blk	D2 PAM
44	CCC(C(=O)OCC(=O)c1c(N)n(CC(C)C)c(=O)n(C)c1=O)c1ccccc1 (stereo not drawn)	-1	3	-1	3
32	O=[N+]([O-])c1ccccc1N/N=C1\CCc2ccccc21	-15	8	-26	-5
31	COC(=O)[C@@]1(Cc2ccc(OC)cc2)[C@H]2c3cc(C(=O)N(C)C)n(CCSCCO)c3C[C@H]2CN1C(=O)c1ccccc1	-18	34	-4	-5
36	Cc1ccccc1-c1cnc(C(O)c2c(C)cccc2C)[nH]1 (stereo not drawn)	-20	.	?	-20

More results
Every second line gives: CtBP-E1A inh | TRPV1 PAM | TRPML1 inh | Six1-Eya2 blk | D2 PAM | TRPML1 agonist
[46] O=S(=O)(NCc1ccccn1)c1cccc2nsnc12
    3 | 9 | 12 | 2 | -10 | 4.6
[47] COc1ccc(/C=N/NC(=S)Nc2ccccc2)cc1COc1ccc(F)cc1
    0 | 3 | 29 | 7 | -4 | 0.1
[48] Cc1ccc(S(=O)(=O)N(C)CC(=O)NNC(=O)CCC(=O)c2ccc(F)cc2)cc1
    1 | . | -9 | 4 | 0 | 0.3
[49] O=S(=O)(c1ccccc1)N(F)S(=O)(=O)c1ccccc1
    -16 | 3 | 0 | 6 | 0 | 0.7
[50] CC(Oc1ccccc1F)c1ccnc2nc(/N=C/N(C)C)nn12 (stereo not drawn)
    0 | 3 | 5 | 2 | 1 | -0.8
[51] O=S(=O)(NCc1nc2ccccc2[nH]1)c1ccccc1
    2 | 7 | 15 | -2 | -1 | -0.5
[52] CCOc1ccccc1N(CC)C(=O)Cn1ncc2c(=O)oc3ccccc3c21
    -2 | -4 | -6 | 1 | -1 | -0.7
[53] CC(C)=CCC/C(C)=C/CNC(=O)C[C@H]1C[C@H](C(=O)N2CCCCC2)[C@@]2(C)c3[nH]c4cc(CCC(=O)N(C)C)ccc4c3CCN2C1=O
    -6 | . | -13 | -4 | . | -0.7
[54] O=C(CSc1nnc(-c2ccncc2)o1)NC1C2CC3CC(C2)CC1C3 (stereo not drawn)
    12 | 13 | -4 | 2 | -8 | -0.1
[55] CCOC(=O)c1c(NS(=O)(=O)c2ccc(Br)cc2)sc2c1CCC2
    -9 | . | 0 | -19 | -20 | -0.1
[56] CCC(COC(=O)Nc1cccc(C)c1)NC(=O)OCC(C)C (stereo not drawn)
    9 | -4 | -3 | 7 | 3 | 0.3
[57] CC(=O)Nc1ccc2nc(C3CCCCC3)[nH]c2c1
    3 | -1 | 23 | 7 | 3 | 0.0
[58] COc1ccc(C(=O)Nc2c(N)nc(SCC(=O)NCC3CCCO3)[nH]c2=O)cc1OC (stereo not drawn)
    -1 | 0 | 7 | 1 | 15 | -0.3
[59] Cc1ccccc1C[n+]1cccc2ccccc21
    6 | -14 | 16 | -1 | -10 | 0.2
[60] O=C(c1ccc(CS(=O)Cc2ccccc2Cl)o1)N1CCN(C2CCCCC2)CC1 (stereo not drawn)
    . | 3 | -16 | 2 | -12 | -0.5

The list goes on.
Every second line gives: CtBP-E1A inh | TRPV1 PAM | TRPML1 inh | Six1-Eya2 blk | D2 PAM | TRPML1 agonist
[61] C=C[C@H](CC(C)C)N(Cc1ccccc1)S(=O)(=O)N(Cc1ccc(OC)cc1)[C@H](C=C)CC(C)C
    8 | 4 | -6 | 3 | -2 | 1.6
[62] CCc1nnc(NC(=O)c2cc3c(s2)CCCCC3)s1
    12 | . | -8 | 7 | -4 | -0.2
[63] Cc1nc(CN(C)C(=O)CC2C(=O)NCCN2Cc2ccc(F)cc2)cs1 (stereo not drawn)
    -1 | -2 | 5 | 7 | 5 | 0.1
[64] CCCCn1c(Cc2ccccc2)nnc1SCC(=O)N1CCOCC1
    6 | 19 | 3 | 5 | 2 | 1.3
[65] CCOc1ccc(S(=O)(=O)Nc2ccc(C(=O)NNC(=O)c3ccncc3)cc2)cc1
    2 | 5 | -5 | -6 | -22 | 0.1
[66] Cc1nn(Cc2ccccc2)c(C)c1NC(=O)c1cc(-c2cccs2)on1
    5 | 30 | 1 | 0 | -7 | 1.9

2 compounds from above, limited to Six1-Eya2 blk, TRPV1 PAM and TRPML1 agonist:
nr	molecule	Six1-Eya2 blk	TRPV1 PAM	TRPML1 agonist
61	C=C[C@H](CC(C)C)N(Cc1ccccc1)S(=O)(=O)N(Cc1ccc(OC)cc1)[C@H](C=C)CC(C)C	3	4	1.6
62	CCc1nnc(NC(=O)c2cc3c(s2)CCCCC3)s1	7	.	-0.2

Source: PubChem BioAssay
